Source: PubChem BioAssay (National Center for Advancing Translational Sciences (NCATS))
Cruzain Triton: inhibitors of Trypanosoma cruzi cruzain with detergent | P25779 | purified cruzain, Z-FR-AMC fluorescence, 0.01% Triton | Potency, µM, inactives show max response, negative = inhibition, usual class: inhibitors | 0.43% of 200,000 active;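 also: plate controls were neutral wells for no effect and buffer without enzyme for full effect; nearly all actives have a fitted effect of over 40% in size; top concentration of the series not given in the record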
Target sequence (P25779 123-467 limits assumed): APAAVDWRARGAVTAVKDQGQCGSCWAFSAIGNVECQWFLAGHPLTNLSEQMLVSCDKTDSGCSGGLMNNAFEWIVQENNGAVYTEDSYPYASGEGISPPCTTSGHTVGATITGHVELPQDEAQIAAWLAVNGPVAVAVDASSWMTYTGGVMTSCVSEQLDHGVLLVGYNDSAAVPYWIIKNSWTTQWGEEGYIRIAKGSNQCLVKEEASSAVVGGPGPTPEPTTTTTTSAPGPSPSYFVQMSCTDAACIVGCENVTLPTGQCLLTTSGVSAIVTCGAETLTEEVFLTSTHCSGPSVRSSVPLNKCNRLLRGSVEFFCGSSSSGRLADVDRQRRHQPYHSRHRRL
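Steps: dispense cruzain (1.5 nM final) in acetate buffer pH 5.5 with DTT and 0.01% Triton X-100; pin-transfer compounds; incubate 15 min RT; add Z-FR-AMC (2 uM final); read fluorescence every 30 s, using the 60 s intensity change.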
SARS PLP yeast: inhibitors of SARS-CoV papain-like protease in yeast. S. cerevisiae expressing SARS-CoV PLpro, growth rescue; control for the full effect not named in the record. Potency, µM (highest dose often 32.9 µM), for the others: at the top dose activity, positive = growth rescue. 0.19% of 330,000 active. AID 485353; active means well fitted rising curve with a large enough effect; inconclusive means small, poorly fitted or top-dose-only effect; inactive means no such curve, though single readings can be large or run the other way; also: 0% is about no effect; nearly all actives have a fitted effect of over 55% in size; growth read by luminescence after 48 h
MARV entry inh: blocks Marburg virus binding to or entry into cells; Marburg virus pseudotyped entry inhibition, cell reporter; control for the full effect not named in the record; about a third of the inactives were read at about 46 µM; Potency, µM (series often up to 37.8 µM), without a hit: top-dose activity change, negative = inhibition, actives largely listed as inhibitors; 1.8% of 300,000 active; AID 540276; active = well fitted inhibition curve with a large enough effect; inconclusive = small, poorly fitted or top-dose-only effect, or effect the other way; inactive = flat fitted curve, though single readings scatter; tested in HEK293 cells; about a fifth of its hits are not listed in these tables; also: % is scaled to controls: 0 for no effect and ±100 for the full control effect; luciferase read-out
RE007 growth inh: less growth of the S. pombe RE007 Vpr strain. S. pombe RE007 Vpr strain, BacTiter-Glo ATP luminescence, 24 h; control for the full effect not named in the record. Potency, µM (highest dose often 92.2 µM), without a hit: at the top dose activity change, negative = less growth. 0.21% of 360,000 active; active = well fitted falling curve with a large enough effect; inconclusive = small, poorly fitted or top-dose-only effect; inactive = no such curve, though single readings can be large or run the other way;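 also: % is scaled to controls: 0 for no effect and ±100 for the full control effect; nearly all actives have a fitted effect of over 50% in size; the assay follows cell death caused by Vpr and the record does not say whether a fall means rescue or toxicity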
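Fission yeast RE007 carrying one integrated HIV-1 vpr copy, seeded at OD 0.01 in PMG+AL medium with 23 nL pinned compound. Grown 24 h at 30 degrees; viability read by BacTiter-Glo luminescence after 5 min.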
Lassa entry inh: Lassa virus entry inhibition. Lassa virus pseudotype entry inhibition, cell reporter; control for the full effect not named in the record. AID 540256. Potency, µM (titrated, usually from 37.9 µM), without a hit: top-dose activity change, negative = inhibition, most hits filed as inhibitors. 1.2% of 300,000 active; active means well fitted inhibition curve with a large enough effect; inconclusive means small, poorly fitted or top-dose-only effect, or effect the other way; inactive means flat fitted curve, though single readings scatter; tested in HEK293 cells; also: % is scaled to controls: 0 for no effect and ±100 for the full control effect; nearly all actives have a fitted effect of over 50% in size; luciferase read-out
2A StopGo: FMDV 2A StopGo reporter, luciferase signal; human cells with a luciferase reporter of 2A StopGo recoding; control for the full effect not named in the record; Potency, µM (titrated, usually from 57.9 µM), for inactives: top-dose signal change, negative = less light; 1.2% of 410,000 active; AID 1159524; active = well fitted falling curve with a large enough effect; inconclusive = small, poorly fitted or top-dose-only effect; inactive = no such curve, though single readings can be large or run the other way; tested in HEK293T cells; also: % is scaled to controls: 0 for no effect and ±100 for the full control effect; nearly all actives have a fitted effect of over 45% in size; luciferase light after 4 h
NS1 function inh: influenza NS1 inhibition; S. cerevisiae slowed by influenza A NS1, growth recovery by OD600; Potency, µM (top dose mostly 46.1 µM), without a hit: top-dose activity, positive = more growth; AID 2326; 0.4% of 270,000 active; active means well fitted rising curve with a large enough effect; inconclusive means small, poorly fitted or top-dose-only effect; inactive means no such curve, though single readings can be large or run the other way; also: nearly all actives have a fitted effect of over 50% in size
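Growth recovery, yeast-based: influenza A NS1 expressed in S. cerevisiae causes slow growth, and suppressors are detected by OD600. The parent strain without NS1 is used as positive control.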
Cruzain inh noDet: blocks cruzain activity in detergent-free assay | purified cruzain, Z-FR-AMC fluorescence, no detergent | Potency, µM, without a hit: max response, negative = inhibition, usual class: inhibitors | 2.3% of 200,000 active;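 also: plate controls were enzyme without inhibitor for no effect and buffer without enzyme for full effect; nearly all actives have a fitted effect of over 40% in size; top concentration of the series not given in the record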
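Detergent-free condition (0.00005% Triton X-100) in acetate buffer pH 5.5 with DTT. 1.5 nM enzyme and compound were pre-mixed 15 min, then 2 uM Z-FR-AMC substrate added; reaction progress from fluorescence change between first and third reads (60 s).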
An asterisk follows results filed as active; & = joins results of further samples; [ ] = remark or other dose. Unless noted, calls follow the shape of the dose curve; as a rule, active = well fitted curve in the direction sought with a large enough effect; inconclusive = small, poorly fitted or top-dose-only effect, or another doubt; inactive = no such curve, though single readings can be large; an effect the other way counts as inactive or inconclusive. Potency is read from the fitted curve at half-maximal effect.

What do the screens show for `CCCCCCN(C(=O)CCCCCN1C(=O)NC(c2ccc(-c3ccccc3)cc2)C(C(=O)OCc2ccccc2)=C1C)C(C(=O)NCCCC)c1ccccc1` (configuration not stated)?
Cruzain Triton: -1.2%; SARS PLP yeast: 0.7%; NS1 function inh: 17.0%; Cruzain inh noDet: -6.8%

How did CCOC(=O)c1c(C)noc1CP(=O)(c1ccccc1)c1ccccc1 do in these assays?
Cruzain Triton: 1.2%; SARS PLP yeast: 0.9%; MARV entry inh: -11.9%; RE007 growth inh: 5.4%; Lassa entry inh: 19.5%; 2A StopGo: 1.2%; NS1 function inh: -5.3%; Cruzain inh noDet: -13.5%

What do the screens show for `Cc1c(C(=O)N2CCOCC2)sc2nc(-c3ccccc3)cn12`?
Cruzain Triton: 7.8%; SARS PLP yeast: -2.7%; MARV entry inh: inconclusive; RE007 growth inh: -18.8%; Lassa entry inh: inconclusive; 2A StopGo: 50.5%[activator]; NS1 function inh: -11.9%; Cruzain inh noDet: 1.2%

How did COC(=O)c1cccc(CSc2nnc(C)s2)c1 do in these assays?
Cruzain Triton: -2.3%; SARS PLP yeast: -1.2%; MARV entry inh: 2.0%; RE007 growth inh: 0.4%; Lassa entry inh: inconclusive; 2A StopGo: 38.3%[activator]; NS1 function inh: -10.9%; Cruzain inh noDet: -2.3%

How did CN(CC(=O)N1CCCCCC1)S(=O)(=O)c1ccc(F)cc1 do in these assays?
SARS PLP yeast: -1.2%; MARV entry inh: inconclusive; RE007 growth inh: 1.5%; Lassa entry inh: 11.8%[46.1 µM]; 2A StopGo: 15.0%; NS1 function inh: -0.7%

How did Cc1ccc(CCNC(=O)c2ccc(CS(=O)(=O)c3ccc(Cl)cc3)o2)cc1 do in these assays?
Cruzain Triton: -2.8%; Lassa entry inh: -23.9%[46.1 µM]; 2A StopGo: -13.0%; Cruzain inh noDet: 9.7%

How did CCCCCc1ccc(-c2ccc(OCC)cc2)nc1 do in these assays?
SARS PLP yeast: -0.4%; MARV entry inh: -0.8%[46.1 µM]; RE007 growth inh: 4.7%; Lassa entry inh: 11.8%; 2A StopGo: 22.6%; NS1 function inh: -2.0%

Results for COc1cc(/C=C/C(=O)OCC(=O)NC(=O)NC2CCCC2)ccc1OCC#N ?
SARS PLP yeast: -6.3%; MARV entry inh: -2.9%; RE007 growth inh: 7.4%; Lassa entry inh: inconclusive; 2A StopGo: -9.5%

Results for C=CCn1c(C)cc(C(=O)CSc2nnc(NCc3ccccc3)s2)c1C ?
Cruzain Triton: -4.2%; SARS PLP yeast: -14.6%; MARV entry inh: inconclusive; RE007 growth inh: 3.9%; Lassa entry inh: inconclusive; 2A StopGo: 10.8%; NS1 function inh: -123.0%; Cruzain inh noDet: -7.1%

How did COc1cccc(C(C)NC(=O)Nc2cccc(C(F)(F)F)c2)c1 (configuration not stated) do in these assays?
Cruzain Triton: -5.9%; SARS PLP yeast: -6.9%; MARV entry inh: -1.2%; RE007 growth inh: -11.2%; Lassa entry inh: -9.1%; 2A StopGo: inconclusive; NS1 function inh: inconclusive; Cruzain inh noDet: 1.2%

Results for CCOC(=O)C1CCN(C(=O)COC(=O)c2ccc(Br)o2)CC1 ?
Cruzain Triton: 3.7%; SARS PLP yeast: 2.5%; MARV entry inh: 3.9%[46.1 µM]; RE007 growth inh: 15.6%; Lassa entry inh: -1.0%; 2A StopGo: -11.2%; NS1 function inh: -14.2%; Cruzain inh noDet: 8.9%

What do the screens show for `COc1cc2cc(CN(Cc3ccc4c(c3)OCO4)C(=O)c3ccco3)c(=O)[nH]c2cc1OC`?
MARV entry inh: -3.1%; RE007 growth inh: -4.4%; Lassa entry inh: -6.6%; 2A StopGo: -13.9%

How did CCN(CC)CCCN(Cc1cc2cc3c(cc2[nH]c1=O)OCO3)C(=S)NCCCOC do in these assays?
SARS PLP yeast: -0.8%; MARV entry inh: 5.4%; RE007 growth inh: -13.5%; Lassa entry inh: inconclusive; 2A StopGo: -10.1%; NS1 function inh: -1.5%

Results for CCN(CC)C(=O)N1c2ccccc2Sc2ccccc21 ?
SARS PLP yeast: -6.4%; RE007 growth inh: -18.5%; 2A StopGo: inconclusive; NS1 function inh: -36.8%

What do the screens show for `Cc1cc(C(C#N)c2ccccc2F)n2ncnc2n1` (configuration not stated)?
SARS PLP yeast: 0.7%; MARV entry inh: 3.8%[46.1 µM]; RE007 growth inh: 40.3%; Lassa entry inh: -8.7%; 2A StopGo: 5.1%; NS1 function inh: 1.0%

What do the screens show for `CC(C)NS(=O)(=O)c1ccc(CCC(=O)Nc2cc(Cl)ccc2Oc2ccccc2)cc1`?
Cruzain Triton: -3.8%; SARS PLP yeast: 11.1%; MARV entry inh: inconclusive; RE007 growth inh: -8.9%; Lassa entry inh: inconclusive; 2A StopGo: inconclusive; NS1 function inh: 10.2%; Cruzain inh noDet: -11.8%

What do the screens show for `O=C(Nc1ccccc1)c1cccc(N2C(=O)C3C4C=CC(C4)C3C2=O)c1` (configuration not stated)?
SARS PLP yeast: -3.0%; MARV entry inh: inconclusive; RE007 growth inh: 0.5%; Lassa entry inh: -0.3%; 2A StopGo: -2.3%; NS1 function inh: -13.0%

Results for Cc1cccc(N=C2NC(=O)c3cc([N+](=O)[O-])ccc32)c1 ?
SARS PLP yeast: 1.3%; MARV entry inh: -3.8%[46.1 µM]; RE007 growth inh: -27.3%; Lassa entry inh: 2.4%; 2A StopGo: -13.6%

Results for O=C(Nc1cccc([N+](=O)[O-])c1)C1CC(=O)N(Cc2ccccc2)C1 (configuration not stated) ?
SARS PLP yeast: -0.7%; MARV entry inh: inconclusive; RE007 growth inh: -9.2%; Lassa entry inh: 1.3%; 2A StopGo: 16.2%; NS1 function inh: -2.4%

How did CC(C)(C)OC(=O)N1CCC(c2c(C(=O)NCCN3CCOCC3)cnn2-c2ccc(F)cc2F)CC1 do in these assays?
Cruzain Triton: -1.0%; Lassa entry inh: -18.2%[46.1 µM]; 2A StopGo: -3.7%; Cruzain inh noDet: 20.4%

How did CS(=O)(=O)Nc1ccc(C(=O)N2CCCC2)cc1 do in these assays?
Cruzain Triton: 3.8%; SARS PLP yeast: 4.1%; MARV entry inh: 19.0%; RE007 growth inh: 10.7%; Lassa entry inh: 5.6%; 2A StopGo: -14.4%; NS1 function inh: 20.3%; Cruzain inh noDet: -3.1%

Results for CC(C)c1cc(CN2CCN(CCC#N)CC2)cc(C(C)C)c1O ?
Cruzain Triton: -8.9%; SARS PLP yeast: 2.5%; MARV entry inh: 2.5%; RE007 growth inh: -1.5%; Lassa entry inh: inconclusive; 2A StopGo: -2.7%; NS1 function inh: 2.6%; Cruzain inh noDet: -0.4%

How did CN(CC1CCOCC1)C(=O)c1ccc2nc(Cc3cccc(Cl)c3)oc2c1 do in these assays?
SARS PLP yeast: -0.4%; MARV entry inh: 0.9%; RE007 growth inh: 16.0%; Lassa entry inh: inconclusive; 2A StopGo: -16.7%; NS1 function inh: -10.9%

Results for Cc1ccnn1CCSCC(=O)O ?
Cruzain Triton: 1.2%; SARS PLP yeast: 8.3%; MARV entry inh: 11.7%; RE007 growth inh: 6.4%; Lassa entry inh: 3.2%; NS1 function inh: 1.9%; Cruzain inh noDet: 13.2%

What do the screens show for `CCC(=O)N1CCc2cc(S(=O)(=O)NC(C(=O)NCCc3ccc(Cl)cc3)C(C)C)ccc21` (configuration not stated)?
Cruzain Triton: -0.4%; MARV entry inh: -0.7%[46.1 µM]; Lassa entry inh: 5.7%[46.1 µM]; 2A StopGo: -22.0%; Cruzain inh noDet: -12.6%

Results for O=C(NC(=S)N(CCO)Cc1ccccc1)c1cc(Br)ccc1Cl ?
SARS PLP yeast: 0.0%; RE007 growth inh: 17.8%; 2A StopGo: 5.1%; NS1 function inh: -1.1%

Results for C1=CC2CC1CC2CN1CCN(c2ccccc2)CC1 (configuration not stated) ?
Cruzain Triton: 3.1%; SARS PLP yeast: -1.3%; MARV entry inh: -15.5%; RE007 growth inh: -7.5%; Lassa entry inh: -2.7%; 2A StopGo: -2.7%; NS1 function inh: 8.0%; Cruzain inh noDet: 15.1%

Results for CCOC(=O)C1CCN(c2cc3c(cc2NC(=O)c2ccccc2Cl)n(C)c(=O)n3C)CC1 ?
Cruzain Triton: -11.6%; SARS PLP yeast: 2.5%; MARV entry inh: inconclusive; RE007 growth inh: 13.4%; Lassa entry inh: 2.51µM*; 2A StopGo: -28.8%&-11.2%; NS1 function inh: -43.6%; Cruzain inh noDet: inconclusive

How did CSc1ccccc1OCc1cc(C(=O)NC2CCOC(C)(C)C2)no1 (configuration not stated) do in these assays?
SARS PLP yeast: -5.8%; MARV entry inh: 24.6%; RE007 growth inh: inconclusive; Lassa entry inh: -8.0%; 2A StopGo: -1.5%; NS1 function inh: 7.6%

How did CCOc1ccc(-c2nc(CSCC(=O)NCC3CCCO3)c(C)o2)cc1 (configuration not stated) do in these assays?
SARS PLP yeast: 2.7%; MARV entry inh: -10.0%[46.1 µM]; RE007 growth inh: 2.5%; Lassa entry inh: -17.8%[46.1 µM]; 2A StopGo: 2.7%; NS1 function inh: -22.6%

How did COc1ccc(NC(=O)C2CCCO2)cc1OC (configuration not stated) do in these assays?
Cruzain Triton: 4.8%; SARS PLP yeast: 5.4%; MARV entry inh: -0.5%; RE007 growth inh: 0.3%; Lassa entry inh: 20.0%; 2A StopGo: -8.9%; NS1 function inh: 0.9%; Cruzain inh noDet: -14.0%

Results for Cc1ccc(-n2nc(C(=O)Nc3ccc(F)cc3F)c3c4ccccc4n(C)c3c2=O)cc1 ?
Cruzain Triton: 0.2%; MARV entry inh: 20.5%[46.1 µM]; Lassa entry inh: inconclusive; 2A StopGo: -10.7%; Cruzain inh noDet: -5.9%

Results for O=C(COc1ccccc1[N+](=O)[O-])NCCC1=CCCCC1 ?
SARS PLP yeast: -10.1%; MARV entry inh: inconclusive; RE007 growth inh: -12.1%; Lassa entry inh: inconclusive; 2A StopGo: -20.4%

How did COc1ccc(NS(=O)(=O)c2ccc(-c3coc(C)n3)cc2)cc1OC do in these assays?
SARS PLP yeast: 2.6%; RE007 growth inh: -8.2%; 2A StopGo: -27.6%; NS1 function inh: 7.9%

What do the screens show for `CNC(=S)Nc1cccc(S(=O)(=O)NC2=NCCC2)c1`?
SARS PLP yeast: 3.4%; MARV entry inh: 0.7%[46.1 µM]; RE007 growth inh: -9.6%; Lassa entry inh: 12.9%; 2A StopGo: 14.5%

What do the screens show for `O=C(c1cccc(C(=O)N2CCN(c3ccccc3)CC2)c1)N1CCN(c2ccccc2)CC1`?
Cruzain Triton: 1.7%; SARS PLP yeast: 4.2%; MARV entry inh: inconclusive; RE007 growth inh: 8.4%; Lassa entry inh: inconclusive; 2A StopGo: inconclusive; NS1 function inh: -1.0%; Cruzain inh noDet: inconclusive
